High-throughput results (PubChem BioAssay)
Rce1 inh: yeast Ras-converting enzyme inhibition; Q03530; yeast membranes, quenched prenylated peptide cleavage fluorescence; calls only; 0.27% of 290,000 active;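 active means fall in fluorescence gain of 50% or more versus controls, with final raw signal at or below 3038400; inconclusive means same 50% fall but final raw signal above 3038400; inactive means fall in fluorescence gain under 50%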;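 further: plate controls were neutral control wells for no effect and wells lacking membranes for full effect; tested at 10 µM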
CSC inhib: cancer stem cell inhibition. cancer stem cell-like cells viability, luminescence. inhibition, % at 7.5 µM. 1.1% of 300,000 active. AID 2717;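 active means mean at 75% or more and at least half the replicates too; inconclusive means mean and replicates disagree; tested in HMLE shEcad cells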;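 further: 0% = median of negative and 100% = median of positive control wells; the first replicate is given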
PABP polyA inh: blocks human PABP binding to poly(A) RNA. P11940. fluorescence polarization. inhibition, % at 35 µM. 1% of 290,000 active. AID 2014;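 active means 50% or more with normal probe brightness, or confirmed in later tests; inconclusive means above 50% with abnormal brightness, or retests that disagree; inactive means below 50% or failed in later tests; about a fifth of its hits are not listed in these tables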;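 further: calls also rest on retests at 20 µM and on dose response follow-up; controls were probe without protein and protein plus probe with vehicle; some compounds called inactive have numbers as strong as hits; many hits fall short of the cut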
Target sequence (P11940 whole entry, looked up): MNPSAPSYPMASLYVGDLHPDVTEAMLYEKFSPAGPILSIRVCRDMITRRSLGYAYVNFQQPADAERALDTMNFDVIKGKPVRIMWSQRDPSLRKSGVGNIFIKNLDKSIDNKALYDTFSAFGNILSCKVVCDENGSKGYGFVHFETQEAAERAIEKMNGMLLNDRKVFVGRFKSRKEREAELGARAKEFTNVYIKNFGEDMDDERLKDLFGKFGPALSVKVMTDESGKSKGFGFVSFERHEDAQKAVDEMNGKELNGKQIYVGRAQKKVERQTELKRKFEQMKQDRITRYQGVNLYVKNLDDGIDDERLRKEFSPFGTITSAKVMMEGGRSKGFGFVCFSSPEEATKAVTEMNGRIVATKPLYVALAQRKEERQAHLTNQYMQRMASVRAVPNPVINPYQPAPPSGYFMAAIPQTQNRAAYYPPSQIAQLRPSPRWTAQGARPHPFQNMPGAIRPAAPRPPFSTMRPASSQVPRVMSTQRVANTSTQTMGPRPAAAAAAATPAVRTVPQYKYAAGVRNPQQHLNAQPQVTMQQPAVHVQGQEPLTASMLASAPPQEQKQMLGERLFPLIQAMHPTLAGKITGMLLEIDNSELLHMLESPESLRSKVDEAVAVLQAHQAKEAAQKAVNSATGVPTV
MT1-MMP act inh: MT1-MMP (human) activation inhibition; P50281; HT1080 RFP-PRO-GFP cells, GFP/RFP ratio fluorescence, overnight; percent of plate control window, DMSO zero; GFP/RFP ratio change, % at 20 µM; 0.061% of 360,000 active; AID 651647;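 active means GFP/RFP ratio change of at least 30% with cell ATP level not reduced by more than half and red fluorescence within 50% of control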; further: strong numbers were not always called active
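Assay system – RFP-PRO-GFP reporter HT1080 cells · Compound dosing – single dose of 20 µM compound, 1% DMSO final · Incubation – overnight compound exposure at 37 °C · Measure – GFP/RFP fluorescence ratio · Benchmarks – DMSO wells and RFP-L50D-GFP cells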
eIF4H inh: inhibitors of RNA binding by human eIF4H; eIF4H fluorescence polarization binding assay; 0.94% of 290,000 active; inhibition, % at 35 µM;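 active means 50% or more with normal probe brightness, or confirmed in later tests; inconclusive means above 50% with abnormal brightness, or retests that disagree; inactive means below 50% or failed in later tests; about a fifth of its hits are not listed in these tables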;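 further: calls also rest on retests at 20 µM and on dose response follow-up; 0% = protein and probe with vehicle and 100% = probe without protein; strong numbers were not always called active; many hits fall short of the cut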
HIV Env fusion: HIV envelope-mediated fusion inhibition; HeLa-JRFL Env/CEM21 cell fusion, luciferase; inhibition, % at 12.3 µM; 1.1% of 360,000 active;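 active means mean replicate inhibition score of at least 50 and every replicate individually at or above 50; inconclusive means only one of the two criteria met; inactive means mean below 50 and not all replicates reaching 50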;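 further: 0% = plate neutral controls and 100% = maraviroc near 300 nM; one replicate is shown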
Yeast UUG start: yeast start codon fidelity modulation | S. cerevisiae UUG-firefly luciferase reporter, luminescence/redox ratio | activity score, % at 18.7 µM | 0.13% of 350,000 active | AID 602363;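 active means replicate mean at a twofold rise or more, about +100% in these data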;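 further: firefly luciferase made from a UUG start codon reports start codon fidelity; reporter light over untreated wells divided by growth signal over untreated wells; some hits fall short of that in this replicate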
MT1-MMP act inh RFP: second read-out of MT1-MMP act inh, no call of its own (marks repeat the call); RFP signal change, %; measured here: RFP expression control read;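 0 = vehicle wells; hits needed this value within 50% of zero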
Numbers without * were called inactive; i = inactive; u = inconclusive; x = no result given; + = active, no number.

Below each compound: MT1-MMP act inh RFP, PABP polyA inh, MT1-MMP act inh, Yeast UUG start, HIV Env fusion, eIF4H inh, CSC inhib, Rce1 inh
CCOc1ccc(S(=O)(=O)NC(C)C)cc1C(N)=O
 : -1, -5, 3, x, 3, 6, -6, i
O=C(Cn1cccc1)N1CCN(C(c2ccccc2)c2ccccc2)CC1
 : -2, 7, -9, 5, -4, -10, -7, i
CS(=O)(=O)c1ccc(CNC(=O)C2(C(F)(F)F)C/C(=C/CCO)CCCO2)cc1 (stereo not drawn)
 : 1, x, -2, -8, -1, x, -1, i
O=C(Nc1nccs1)C1CCN(S(=O)(=O)c2ccc(F)cc2)CC1
 : -2, 1, 2, -22, -19, -8, -6, i
CC(C)(C)NC(=O)NC(=O)COC(=O)c1cccc(NS(=O)(=O)c2ccc(F)c(F)c2)c1
 : 2, 1, 5, x, -7, -17, 7, i
O=C(O)c1cccc(Cn2c(Cl)c(/C=N/NC(=O)c3ccco3)sc2=O)c1
 : 2, 7, -5, -7, 1, -7, -7, i
COc1ccc(/C=C/C(=O)c2ccc([N+](=O)[O-])o2)cc1
 : -15, x, -15, 1, -444, x, u, i
Cn1nc(NC(=O)C(F)(F)F)c2ncc(-c3ccccc3)nc21
 : 4, x, 2, -17, 9, x, x, x
O=[N+]([O-])c1ccc(C=CC=Cc2ccccc2)cc1
 : 6, x, -5, -23, -32, x, x, x
CCn1c2ccccc2c2cc(NC(=O)N3CCCCC3)ccc21
 : -1, x, 1, 12, -33, x, x, x
Cc1ccc(Nc2nc(C)nc3c2oc2ccccc23)cc1
 : x, -6, x, x, 7, -2, 5, i
CC(C)(C)NS(=O)(=O)c1ccc2nc(NC(=O)Cc3cccs3)sc2c1
 : -4, -6, 9, 6, x, -3, 35, i
CN(CC(=O)Nc1ccc(F)cc1)C(=O)COc1ccc([N+](=O)[O-])cc1Cl
 : -1, -6, 1, -5, 15, -3, -2, x
Cn1ccnc1C1CCCCN1Cc1nc(-c2ccc3c(c2)OCO3)no1 (stereo not drawn)
 : 0, -6, -4, x, 5, -2, -4, i
COc1cc2c(cc1OC)C(C)=NC1(CCCCC1)C2
 : 0, 16, 3, -6, 2, -3, -4, +
COc1cccc(-c2nn(-c3ccc(C)cc3)cc2C(=O)N2CCc3cc(OC)c(OC)cc3C2)c1
 : -7, x, -5, 9, -1, x, 59, i
O=C(Nc1c(Cl)cccc1Cl)C1CCC1
 : 5, -2, -1, -10, -52, -5, -5, i
Cc1nc(NC(=O)CC(C)C)sc1-c1csc(Nc2ccc(Cl)cc2)n1
 : -2, -4, 8, -21, 19, -3, 21, i
C[C@H]1CCCCO[C@@H](CN(C)S(=O)(=O)c2ccc(Cl)cc2)[C@@H](C)CN([C@@H](C)CO)C(=O)c2cc(NS(=O)(=O)c3ccccc3)ccc2O1
 : -2, x, -1, -16, -59, x, x, x
O=C(c1ccc(S(=O)(=O)Nc2ccccc2Cl)cc1)N1CCOCC1
 : 1, x, 2, -11, 9, x, -16, i
Cc1cc(C)n2nc(C(=O)Nc3ccc(S(=O)(=O)N4CCCCC4)cc3)nc2n1
 : 2, 9, 2, -5, x, -5, 1, i
Cc1ccc(CS(=O)(=O)c2ccccc2-c2nnc(-c3ccc(Cl)cc3)o2)cc1
 : -3, -15, 5, -9, x, -5, 0, i
CCN1CCN(S(=O)(=O)c2ccc(OC)c3ccccc23)CC1
 : 6, 6, 4, -8, -2, -4, -9, x
COc1cc(-c2nnc(-c3ccc(S(=O)(=O)c4ccccc4)cc3)o2)cc(OC)c1OC
 : 2, -3, 4, -19, x, 2, x, i
Cc1cccc(N=C(N2CCOCC2)P(=O)(N2CCOCC2)N2CCOCC2)c1
 : 4, -2, -2, -5, -75, -3, 2, i
Cc1cccc(NC(=O)CNc2cc(C)ccc2C)c1
 : -5, -2, -2, -18, -14, -5, 1, i
Cc1nnc(-c2ccccc2)c[n+]1[O-]
 : 0, 1, 0, x, -11, -1, -17, i
C=CCOc1ccc(CN(C)C(=O)CN2C(=O)c3ccccc3C2=O)cc1
 : -2, 3, -3, -10, -2, -10, x, i
CC(C)(C)c1csc(NC(=O)Nc2ccccc2)n1
 : -19, 14, -18, -15, -43, 8, 24, i
Cc1cc(CNC(=O)COc2cc(F)ccc2[N+](=O)[O-])c2ccccc2n1
 : -8, 11, -3, -10, 9, -7, -3, i
Cc1ccc(N(C(=O)Cn2nnc(-c3ccc(F)cc3)n2)C(CC(C)C)C(=O)NCC2CCCO2)cc1 (stereo not drawn)
 : -8, 10, -4, -3, 10, -12, -12, i
COc1ccc(CCNC(=S)NCCc2c[nH]c3ccccc23)cc1
 : -1, 0, -1, x, -4, -12, 4, i
CCC(C(N)=NCCc1ccc(OC)c(OC)c1)c1ccccc1 (stereo not drawn)
 : 2, -1, 0, -10, 15, 2, 4, i
CCn1c(C)nc2cc(C(=O)NNC(=O)Nc3ccc(Cl)c(Cl)c3)ccc21
 : x, -1, x, x, 20, -1, -2, i
CC(C)Oc1ccc(C(=O)Nc2cc(S(=O)(=O)N3CCOCC3)ccc2N2CCOCC2)cc1
 : -3, x, -5, 21, 9, x, x, x
CCC1=C(OC(=O)N(CC)CC)N2C(=O)OC(=NCC(=O)OC)[C@]2(Cc2ccccc2)[C@H]2C1=CC[C@H]1C(=O)NC(=O)[C@H]12
 : 3, 5, 0, -13, -40, -2, 8, i
O=C(CC(SCCO)c1ccc(F)cc1)c1ccco1 (stereo not drawn)
 : 2, -9, 8, -13, x, -3, -11, i
COc1cccc(CN2CCc3ccc(NC(=O)CCc4ccc(C)cc4)cc3C2)c1O
 : -10, -4, -1, -19, 5, -11, x, i
NC(=O)c1ccsc1NC(=O)c1ccc(S(=O)(=O)N2CCCCC2)cc1
 : x, 4, x, 2, -39, -3, 2, i
O=C(Cn1nnc(-c2cccc(C(F)(F)F)c2)n1)NC1CCCC1
 : 7, 0, 10, 10, x, -8, x, i
C/C(CC(=O)Nc1ccc(Cl)cc1Cl)=N\NC(=O)C(=O)NCCO
 : 7, 0, -6, 10, -7, -5, x, i
O=C1NC2=C(C(=O)CCC2)C(c2ccc(OC(F)F)cc2)N1 (stereo not drawn)
 : -3, -1, -1, -15, 10, -6, 2, i
CC1=C(C(=O)N(C)C)CC(CC(=O)NC2CCCC2)C(=O)N1Cc1ccc(F)cc1 (stereo not drawn)
 : 4, x, 0, 31, 4, x, x, x
CC(=O)Nc1ccc(N2C(=O)CC(Sc3nc4ccccc4s3)C2=O)cc1 (stereo not drawn)
 : 1, 5, 4, 0, -2, -8, -3, i
COc1ccc(-n2cc(CNCc3cnc4ccccn34)c(-c3cccc(F)c3)n2)cc1
 : -4, -8, -13, x, 9, 35, 11, i
Cc1ccc(NC(=O)/C(=C\c2cccnc2)NC(=O)c2ccco2)cc1
 : 1, -6, 1, x, -32, -1, -14, i
O=C1NCCOC(=O)[C@@H](Cc2ccc(F)cc2)CC/C=C/C[C@H]1CC(=O)N(CCO)Cc1ccccc1
 : -6, x, 3, -5, -68, x, x, x
Cc1ccc(S(=O)(=O)N2C[C@]3(O)C[C@@H]4C(=O)N(c5ccccc5)C(=O)[C@@H]4C[C@]3(OC(=O)Nc3cccs3)C2)cc1
 : 5, x, 3, -21, -27, x, x, x
COc1ccc(NC(=O)CN(C)C(=O)c2ccc(NC3CC3)c([N+](=O)[O-])c2)cc1
 : 1, x, 2, x, -9, x, x, i
CCOC(=O)c1cn(Cc2ccc(Br)cc2)nn1
 : -2, -9, -1, -21, 1, 5, 5, i
Clc1ccc(CSc2ncn(-c3ccccc3)n2)cc1
 : -2, -4, -4, -3, -23, 4, 5, i
COc1ccc(COC(=O)C2=C(C)NC(=O)NC2c2ccccc2)cc1 (stereo not drawn)
 : -13, 5, -1, 4, 8, -8, -2, i
Cc1cc(C)n2nc(SCc3nnc(SCc4ccccc4C)s3)nc2n1
 : -8, -4, -2, -3, x, -10, -24, i
O=C(Cc1ccccc1)NCC(=O)N1CCN(c2ccccc2)CC1
 : 1, 0, -1, -3, 6, 0, -20, i
Cc1ccc(OCCNC(=O)CCNS(=O)(=O)c2ccc3ccccc3c2)cc1
 : -3, x, 6, -10, x, x, -2, x
CCCN(C(=O)COC(=O)c1cc(CC)c(C)s1)c1c(N)n(Cc2ccccc2)c(=O)[nH]c1=O
 : -3, x, -8, -10, 21, x, -9, i
O=C(NCC1CCCO1)C1CCCN1C(=O)Nc1ccc(Cl)cc1 (stereo not drawn)
 : 6, 0, 3, x, -18, 4, 10, i
CC(=O)c1cccc(NC(=O)c2ccc(NS(C)(=O)=O)cc2)c1
 : 3, -2, 1, -19, x, -10, -12, i
O=[N+]([O-])c1cccc(CN2CCCCCC2)c1
 : 5, 1, 0, -19, 5, -6, 5, i
CC([NH2+][O-])C(C)(C)NO (stereo not drawn)
 : 2, 3, -6, -7, -7, -8, -10, i

Going on with the list:
Below each compound: MT1-MMP act inh RFP, PABP polyA inh, MT1-MMP act inh, Yeast UUG start, HIV Env fusion, eIF4H inh, CSC inhib, Rce1 inh
CCN1CCN(C2=C(NS(=O)(=O)c3ccc(NC(C)=O)cc3)C(=O)c3ccccc3C2=O)CC1
 : -2, 8, -2, 9, 8, -8, 12, i
CC1(c2cccc3ccccc23)OC(=O)c2ccccc21 (stereo not drawn)
 : -2, x, 0, -17, -15, x, x, x
COc1ccc(NC(=O)CSc2nc3c(c(=O)[nH]2)CCC3)cc1OC
 : 6, -5, 2, -16, x, -3, 2, i
CCCCc1cn([C@@H](CCCCNC(=O)OC(C)(C)C)C(=O)N2CCN(C(=O)OC(C)(C)C)CC2)nn1
 : -1, 2, 1, 53, 20, 10, -2, i
COC(=O)CCC(=O)Nc1ccc(C)cc1OC(=O)CCC(=O)OC
 : 6, 7, -1, -2, x, 8, -14, i
COc1ccc(-c2nc(CN3CCN(C(=O)c4ccco4)CC3)c(C)o2)cc1OC
 : 0, 9, 0, -11, 7, 5, x, i
CCOc1cc(-c2cc(-c3ccccc3)nc(N)c2C#N)ccc1O
 : -5, -2, 8, -5, x, -6, x, i
COc1ccc(NC(=O)CSc2nnc(-c3ccccn3)n2N)cc1
 : -6, 10, -1, -4, -50, -10, 5, i
O=C1C2C3C=CC(C2C(=O)N1CCO)C1C(=O)N(CCO)C(=O)C31 (stereo not drawn)
 : 0, -2, -2, -8, -37, 2, -6, i
NS(=O)(=O)c1ccc(NC(=S)NCc2cccs2)cc1
 : 2, 1, 3, x, -11, -3, -5, i
Cc1cccc(NC(=O)C2CCCN(C(=O)Nc3ccccc3)C2)c1C (stereo not drawn)
 : -4, 3, 0, -9, -9, -10, -8, i
COc1cccc(C(=O)N(Cc2ccco2)Cc2cc3cccc(C)c3[nH]c2=O)c1
 : -8, 1, -1, -7, -18, -12, -8, i
Cn1c(CNC(=O)c2ccccc2F)nnc1SCC(=O)Nc1nncs1
 : 1, 2, 0, -1, 13, -8, -11, i
Cc1cc(C)nc(Sc2nc(C)nc3c2oc2ccccc23)n1
 : 1, -4, 6, x, x, -6, 4, i
CN(C)c1nc(OCC(=O)NC(C)(C)C)nc(N(C)C)n1
 : 5, -4, 2, 5, x, -1, -1, i
CCCCNC(=O)C1c2cc(OC)c(OC)cc2C(=O)N(C)C1c1ccc(OC)cc1 (stereo not drawn)
 : 1, 5, -1, -18, -14, -8, -9, i
Cc1ccc2oc(=O)n(CC(=O)OCCC(C)C)c2c1
 : 7, -2, 0, -8, 11, -5, -5, i
Cc1ccc(C)c(N2C(=O)C3C4C=CC(CC4)C3C2=O)c1 (stereo not drawn)
 : -5, 4, -3, -1, -7, 14, -12, i
COc1ccc(COC(=O)C2=C(C)NC(=O)NC2c2ccc(OC)c(OC)c2)cc1 (stereo not drawn)
 : 0, 4, 7, 12, -6, -5, -7, i
O=C(CSc1nnnn1-c1ccc(F)cc1)NCc1cccs1
 : -1, -7, -4, x, 9, -22, -3, i

The list is partial; count on the stated rates, not on these rows.
